Sfp PPTase inh = inhibitors of Bacillus subtilis Sfp phosphopantetheinyl transferase. Q9F4F7. Biochemical Sfp PPTase activity, qHTS. Potency, µM, inactives show max response, negative = inhibition, most hits filed as inhibitors. actives 3.5% (n = 310,000). AID 1490; active = well fitted inhibition curve with a large enough effect; inconclusive = small, poorly fitted or top-dose-only effect, or another doubt; inactive = no such curve, though single readings can be large or run the other way;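 note: the enzyme is Sfp with the accession as filed and its product quenches rhodamine fluorescence; potency is the fitted concentration of half-maximal effect; 0% = enzyme reaction without inhibitor and -100% = no enzyme wells; top concentration of the series not given in the record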
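Compounds were incubated with enzyme (final 15 nM) for 15 min at room temperature before substrate addition started the reaction. Fluorescence at 525 nm excitation, 598 nm emission was recorded immediately and after 30 minutes.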
TRPV1 PAM = enhances activation of the human vanilloid receptor TRPV1; Q8NER1; TRPV1-expressing cells, Fluo-8 calcium influx, capsaicin EC20 potentiation; host cell line not named in the record; control for the full effect not named in the record; potentiation, % at 8.33 µM; actives 0.02% (n = 320,000); AID 540277; active means potentiation above 80%; inconclusive means 30% to 80%; inactive means below 30%; note: 0% is about no effect
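Cells expressing TRPV1 were dye-loaded with Fluo-8 and read kinetically: 10 s baseline, 3 min after compound (agonist portion), then 2 min after EC20 capsaicin (allosteric enhancer portion). Calcium-bound dye fluorescence at 480/520 nm.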
gsp antagonist = antagonists of gsp mutant (McCune-Albright syndrome); Potency, µM (series often up to 76.9 µM), for inactives: at the top dose activity change, negative = inhibition, usual class: inhibitors; gsp-mutant cells, cAMP HTRF, 30 min; control for the full effect not named in the record; AID 624288; actives 0.4% (n = 340,000); active = falling curve of any shape with a large fitted effect; inconclusive = falling curve, mostly with a smaller effect; inactive = flat or rising curve; cell line not stated here;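 note: intracellular cAMP measured with PDE inhibitor Ro 20-1724 present during compound exposure; potency is the fitted concentration of half-maximal effect; % is set by controls: 0 for no effect and ±100 for the full control effect; nearly all actives have a fitted effect of over 65% in size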
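HTRF cAMP read-out (cAMP-d2 plus anti-cAMP antibody-K in lysis buffer, 30 min RT). Before lysis, cells are exposed to compounds with […] for 30 min at 37C in DPBS containing Ca/Mg, BSA and Tween 20.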
ClpP mod = qHTS Assay for Activators of ClpP. Potency, µM (top dose mostly 57.5 µM), for the others: top-dose activity change, negative = active. purified B. subtilis ClpP, FRET peptide cleavage, 20 min. AID 651965, 2013. actives 1.9% (n = 340,000); active = well fitted falling curve with a large enough effect; inconclusive = small, poorly fitted or top-dose-only effect; inactive = no such curve, though single readings can be large or run the other way; note: potency is the fitted concentration of half-maximal effect; the source files actives as falling curves though it sought activators and does not explain the sign; nearly all actives have a fitted effect of over 65% in size; many hits overshoot -100%
Target sequence (P80244 whole entry, looked up): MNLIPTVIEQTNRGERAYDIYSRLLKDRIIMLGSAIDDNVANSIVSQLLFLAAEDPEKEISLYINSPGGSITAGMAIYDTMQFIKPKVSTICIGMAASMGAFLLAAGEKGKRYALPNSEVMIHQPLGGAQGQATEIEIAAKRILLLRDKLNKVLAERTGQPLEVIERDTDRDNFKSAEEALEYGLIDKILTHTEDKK
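Purified B. subtilis ClpP, 10 microg/mL final in Tris/HCl pH8 with KCl, BSA, glycerol and Tween-20, cleaved an Abz/nitrotyrosine-quenched decapeptide. Fluorescence (ex 320, em 430) was read at 0 and 20 min at room temperature. Delta was normalized to 5.8 microM ADEP and DMSO/no-enzyme controls.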
gsp ag = agonists of gsp mutant (McCune-Albright syndrome) | gsp mutant cells, cAMP HTRF, 30 min; control for the full effect not named in the record | Potency, µM (top dose mostly 76.9 µM), for inactives: at the highest dose activation (cAMP increase), hits mostly activators | actives 0.13% (n = 340,000) | AID 624287; active = well fitted activation curve with a large enough effect; inconclusive = small, poorly fitted or top-dose-only effect, or another doubt; inactive = no such curve, though single readings can be large or run the other way; cell line not stated here;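 note: phosphodiesterase inhibitor Ro 20-1724 added with compounds to block cAMP breakdown; potency is the fitted concentration of half-maximal effect; nearly all actives have a fitted effect of over 60% in size; about a fifth of the inactives were tested at one dose only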
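Cells stably selected in G418 were plated at 2000/well, grown 16-24 hr, then given compounds in DMSO with the PDE inhibitor […] (300 uM solution added) for 30 min at 37C; cAMP was read by HTRF.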
Menin-MLL FL inh = inhibitors of human menin-MLL interaction, wild-type MLL peptide; Fluorescence polarization, fluorescein-MLL peptide displacement from menin; FP activity change, % at 61.4 µM; 290,000 tested, under 10 active; inconclusive = falling polarisation curve, or a change in total fluorescence; inactive = total fluorescence flat and polarisation flat or rising; no compound was filed as active; the % refers to the polarisation; negative = inhibition;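 note: % of control where 0% means no effect; inhibitors lower the polarisation; unlabelled MLL peptide was the positive control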
D2 PAM = potentiates the human D2 dopamine receptor allosterically; DiscoveRx D2 beta-arrestin cells, luminescence, 90 min; 100% = 57 uM dopamine signal; potentiation, % (test concentration not listed); actives 0.23% (n = 360,000); AID 624464; active = potentiation of 50% or more; inconclusive = 30% to 50%; inactive = 30% or less;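 note: compound concentration not given in the record; tested on top of an EC20 dose of dopamine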
Target sequence (P14416 whole entry, looked up): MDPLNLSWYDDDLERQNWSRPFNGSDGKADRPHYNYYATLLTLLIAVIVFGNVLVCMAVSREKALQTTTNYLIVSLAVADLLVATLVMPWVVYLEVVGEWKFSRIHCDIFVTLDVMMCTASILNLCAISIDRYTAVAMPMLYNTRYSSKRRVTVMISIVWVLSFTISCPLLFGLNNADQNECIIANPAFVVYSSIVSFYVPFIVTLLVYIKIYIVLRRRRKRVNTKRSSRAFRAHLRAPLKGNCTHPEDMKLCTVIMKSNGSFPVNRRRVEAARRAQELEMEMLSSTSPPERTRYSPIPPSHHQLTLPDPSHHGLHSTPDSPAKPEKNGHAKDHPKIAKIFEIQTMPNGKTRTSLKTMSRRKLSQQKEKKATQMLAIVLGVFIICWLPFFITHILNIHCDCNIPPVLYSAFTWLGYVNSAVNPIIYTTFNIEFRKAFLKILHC
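D2 cells co-treated with compound plus 50 nM dopamine (EC20) for 90 min at 37 deg C to detect potentiation. Beta-arrestin recruitment was read as enzyme-fragment luminescence after 1 h at ambient temperature. Full response was set by 57 uM dopamine.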
Starred values were filed as active, the others as inactive; u = inconclusive; x = no result given; & = joins results of further samples; [ ] = dose if it differs, or a comment.

Below each SMILES: Sfp PPTase inh, TRPV1 PAM, gsp antagonist, ClpP mod, gsp ag, Menin-MLL FL inh, D2 PAM
CC(=O)Nc1ccc(OCC(O)CN2CCN(S(=O)(=O)c3ccc(NC(C)=O)cc3)CC2)cc1 (stereo not given)
    11%, 6, 5%, 2.2%, 9%, 0.7, -3
Cn1c(SCC(=O)NC2CC2)nnc1-c1ccccn1
    3%, -2, 7%, -3.7%, 17%, x, -11
O=C(CCN1C(=O)/C(=C/c2ccc(F)cc2)SC1=S)NCCCn1ccnc1
    -16%, -2, -1%, 0.6%, -32%[inhibitor], u, 3
O=C(CCCCCNC(=O)N1CCn2c1nc1ccccc12)NCc1ccccc1Cl
    0%, -2, -23%, 1.5%, 12%, -0.6, 1
Cc1nnsc1C(=O)N/N=C/c1ccc2ccccc2c1O
    6%, -16, -17%, 3.7%, -22%, u, -16
CCCCOC(=O)CSC1=C(C#N)C(c2cccnc2)C(C(=O)OCC)=C(c2ccccc2)N1 (stereo not given)
    10%, -2, -2%, x, 2%, 9.8, -7
Cc1ccc(-n2nnnc2-c2nc3ccccc3s2)cc1
    13%, -2, -15%, -1.9%, -18%, -7.1, 4
CCCCC(c1nnnn1CC1CCCO1)N1CCN(c2ccccc2)CC1 (stereo not given)
    11%, -1, 11%, -0.2%, -42%[inhibitor], -0.9, -4
O=c1cc(CN2CCN(c3ccc(F)cc3)CC2)nc2sccn12
    -3%, -16, 12%, -3.1%, 1%, -25, -16
CCc1ccc(N2CN=c3s/c(=C\c4ccccc4)c(=O)n3C2)cc1
    6%, -10, -13%, 1.0%, 9%[15.4 µM], -1.4, -4
O=S(=O)(/C=C/c1ccccc1)NC1CCCCCCC1
    6%, -9, 6%, -0.6%, 12%, 3.8, -15
COc1ccc(Nc2nc(C)cc(C)c2C(N)=O)c(OC)c1
    40µM*, 19, 4%, 2.2%, -26%, 1.1, -2
O=C(Cn1ccnc1)c1ccc(O)c(O)c1
    x, -2, 9%, 0.5%, u, x, 1
CCC(C)NC(=O)Cn1cc2c(n1)CCC(C)C2 (stereo not given)
    15%, 13, 2%, 2.1%, -41%[inhibitor], 0.3, -3
Cc1ccc2nc(C3CCCCC3)[nH]c2c1
    1%, -17, -2%, 1.0%, -12%, 0.7, -8
Oc1ccc(C(=S)N2CCCCC2)cc1Cl
    10%, -4, -34%, 0.7%, -27%, 2.0, 1
CO/C([O-])=N/c1c[n+](-c2ccc(Cl)cc2)no1
    10%, -1, 8%, -3.0%, -1%, -3.6, 4
Cc1ccc2nc(NC(=O)c3ccco3)sc2c1
    8%, -20, -29%, -3.6%, 5%, 3.9, -23
CCOc1cc(N2CCOCC2)c(OCC)cc1NC(=O)COc1cccc(CC)c1
    x, 9, -24%, 2.4%, -3%, x, 1
O=Cc1ccc(OC(=O)CCCCC(=O)Oc2ccc(C=O)cc2)cc1
    -3%, 14, -1%, -1.5%, -43%[inhibitor], -4.3, -7
O=[N+]([O-])c1ccc(Cl)cc1P(=O)(O)c1cc(Cl)ccc1[N+](=O)[O-]
    x, x, 6%, 2.8%, u, x, -15
CC1CCCN(C(=O)Cn2c(=O)oc3ccccc32)C1 (stereo not given)
    28%, -2, 19%, -0.1%, -9%, 0.4, -5
COc1ccc(NC(=O)CCNC(=O)Cn2cnc3ccccc3c2=O)cc1OC
    3%, -3, 12%, -0.5%, -8%[15.4 µM], -0.3, -7
Cc1ccccc1Cn1c2ccccc2c2cnn(CC(=O)NCc3ccccn3)c(=O)c21
    -10%, -2, -11%, 3.8%&5.0%, 41%, 2.2, -4
O=C(COc1ccccc1F)NCc1ccc(-n2cccc2)cc1
    -15%, -2, 8%, -0.1%, -2%[15.4 µM], 0.6, -14
Cc1ccc(NC(=O)c2ccsc2)cc1NS(C)(=O)=O
    -4%, 30, -27%, -1.2%, 5%[15.4 µM], 1.0, -11
O=C(Nc1cccc(-c2nn[nH]n2)c1)c1cccs1
    6%, 14, 9%, -0.5%, 28%, x, -12
COc1ccc(OC)c(C2C(C(N)=O)=C(C)Nc3nc(-c4cccc(Cl)c4)nn32)c1 (stereo not given)
    8%, -1, 6%, u, 0%, 1.1, 7
COC(=O)CSc1nc2cc3c(cc2cc1C)OCCO3
    -13%, -8, 0%, -6.7%, -27%, 4.0, -4
COc1ccc(CNC(=O)CCCSc2ccccc2)cc1
    13%, 4, 8%, x, -2%[15.4 µM], 3.3, -1

Reformatted: entries from further up.
mol	Sfp PPTase inh	TRPV1 PAM	gsp antagonist	ClpP mod	gsp ag	Menin-MLL FL inh	D2 PAM
CO/C([O-])=N/c1c[n+](-c2ccc(Cl)cc2)no1	10%	-1	8%	-3.0%	-1%	-3.6	4
CCOc1cc(N2CCOCC2)c(OCC)cc1NC(=O)COc1cccc(CC)c1	x	9	-24%	2.4%	-3%	x	1
Cc1ccc2nc(NC(=O)c3ccco3)sc2c1	8%	-20	-29%	-3.6%	5%	3.9	-23
O=C(Nc1cccc(-c2nn[nH]n2)c1)c1cccs1	6%	14	9%	-0.5%	28%	x	-12

(continued)
Below each SMILES: Sfp PPTase inh, TRPV1 PAM, gsp antagonist, ClpP mod, gsp ag, Menin-MLL FL inh, D2 PAM
COCC(=O)N/N=C(\C)CC(=O)NCc1ccco1
    2%, -4, 11%, x, u, 2.1, -3
CC1=C(C(=O)OCC(C)C)[C@]23C(=O)c4ccccc4[C@@]2(O1)OC(N)=C3C#N
    9%, -10, -4%, -0.1%, u, -0.7, -5
CC(C)c1ccccc1OCC(=O)N1CCCCCCC1
    5%, 23, -29%, 0.1%, 11%[15.4 µM], 0.0, -13
CCOc1ccc(NC(=O)CSc2nnnn2-c2ccc(C(N)=O)cc2)cc1
    9%, -8, 17%, 0.0%, -7%[15.4 µM], -3.7, -3
COc1cccc(NS(=O)(=O)c2ccc3c(c2)NC(=O)C(C)S3)c1 (stereo not given)
    19%, 15, 16%, -1.4%, 15%, -8.0, -12
CCOC(=O)C1=CSC2=NS(=O)(=O)CCN12
    10%, 8, 6%, -1.3%, 2%, 9.4, 0
Cn1c(SCC(=O)Nc2cccc(F)c2)nc2c(c1=O)SCC2
    12%, u, -22%, u, 3%, x, 2
CN(c1ccccc1)S(=O)(=O)c1cccc(C(=O)NC2CCCCC2)c1
    x, -15, -11%, 4.8%, 14%, x, -9
C=CCNCCOc1cccc(Br)c1
    7%, 5, -13%, -2.3%, 0%, 1.3, -25
CCOc1ccc(NC(=O)CN2C(=O)C3CC=CCC3C2=O)cc1 (stereo not given)
    12%, 4, 3%, -1.6%, -32%[inhibitor], 1.1, -9
CCc1nnc(NC(=O)c2ccc(S(=O)(=O)N3CCCCC3C)cc2)s1 (stereo not given)
    3%, -13, 4%, -0.3%, -37%[inhibitor], 1.4, -15
CCOC(=O)c1cc(-c2ccc(Cl)cc2)nc2c1c(C)nn2CCC#N
    -5%, -11, -9%, 35µM*, -37%[inhibitor], 3.3, -20
COc1ccc(-n2c(C)cc(C(=O)Cn3nc(C(=O)O)c4ccccc4c3=O)c2C)cc1
    -10%, -17, -3%, -1.9%, -29%, 0.8, -4
COc1cccc(OC)c1C(=O)NC(C)C12CC3CC(CC(C3)C1)C2 (stereo not given)
    -12%, -17, u, -0.1%, -30%, -0.4, -3
NNC(=O)c1cccc(COc2cccc(Br)c2)c1
    -17%, -1, -2%, -2.1%, -52%[inhibitor], 1.4, -3
O=C(Nc1ccccc1)c1ccc(=O)n(Cc2ccc(F)c(F)c2)c1
    12%, -8, -11%, x, -2%, 2.6, -10
O=C(CCc1ccc(S(=O)(=O)NCCc2ccccc2)cc1)NCc1ccco1
    -14%, 5, 3%, -0.6%, -13%, 7.0, -4
CCN(CC)C(=O)c1cn(CCC#N)nc1-c1ccc(F)cc1
    18%, 1, -28%, 0.3%, -9%[15.4 µM], 0.2, -6
COC(=O)[C@H](CC(C)C)NC(=O)NC1CCCc2ccccc21 (stereo not given in full)
    17%, -3, 4%, -2.1%, -4%, 2.9, -3
N#Cc1c(N)c(C(=O)c2ccccc2)n2c1CCC2
    15%, 7, 2%, 2.9%, -2%, -1.4, 2
CCc1cc(=O)[nH]c(SC/C=C/c2ccccc2)n1
    19%, 7, -7%, 1.2%, -10%, -3.7, -2
CCCc1cc(C(=O)Nc2ccc(C(=O)c3ccc(C)cc3)cc2)n(C)n1
    -1%, -7, -24%, -2.6%, 4%, x, -28
NC(CSC1(c2ccc(Cl)cc2)c2ccccc2-c2ccccc21)C(=O)O (stereo not given)
    x, x, -10%, -2.1%, 5%, x, -8
O=C(CN1C(=O)C2CC=CCC2C1=O)Nc1ccc(S(=O)(=O)Nc2nccs2)cc1 (stereo not given)
    u, 23, 4%, -0.6%, -6%, 1.9, -9
COc1ccc(S(=O)(=O)NC2(C(F)(F)F)NC(=O)N(CCc3ccccc3)C2=O)cc1 (stereo not given)
    19%, -1, 2%, -0.2%, -1%[15.4 µM], x, -4
COc1ccc2cc(C(=O)C3CCCN(C(=O)c4ccnn4C)C3)ccc2c1 (stereo not given)
    -5%, 4, -12%, 3.5%, 17%, -0.2, -17
CCOC(=O)c1c(Nc2nc(C)c(C(=O)NC)s2)sc(C)c1C
    40µM*, -11, -4%, u, -5%, 4.1, -4
CCOC(=O)Cn1c(CN(C)Cc2ccccc2)nc2c1c(=O)n(C)c(=O)n2C
    x, x, -18%, -2.8%, 19%, x, 7
Cc1cccc(N2CCN(C(=O)c3cc(=O)[nH]c4ccccc34)CC2)c1C
    -2%, -8, 0%, -2.7%, -8%, -3.1, -4
Brc1cnc(N2CCCC2)nc1N1CCCCC1
    -16%, x, 4%, -4.8%, -40%[inhibitor], 3.7, -3
Cn1c(CCN2CCOCC2)nc2cc(NC(=O)COc3ccccc3)ccc21
    9%, -34, 9%, -5.5%, -11%, 2.9, 2
CCOc1ccc2nc(SC3CC(=O)N(c4ccc(OC)cc4OC)C3=O)sc2c1 (stereo not given)
    -1%, 3, -6%, 0.9%, -18%, 1.8, -2
